High-throughput results (PubChem)
PABP FP inh: PABP-poly(A) binding inhibition | inhibition, % at 35 µM | P11940 | 290,000 compounds, 1% hits | PABP-poly(A) RNA binding, fluorescence polarization;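 active = 50% or more with normal probe brightness, or confirmed in later tests; about a fifth of its hits are not listed in these tables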;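 also: calls also rest on retests at 20 µM and on dose response follow-up; controls were probe without protein and protein plus probe with vehicle; some compounds called inactive have numbers as strong as hits; many hits fall short of the cut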
eIF4H FP inh: inhibitors of RNA binding by human eIF4H; AID 2012; inhibition, % at 35 µM; Q15056; 290,000 compounds, 0.94% hits; eIF4H fluorescence polarization binding assay;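 active = 50% or more with normal probe brightness, or confirmed in later tests; about a fifth of its hits are not listed in these tables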;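 also: calls also rest on retests at 20 µM and on dose response follow-up; 0% = protein and probe with vehicle and 100% = probe without protein; strong numbers were not always called active; many hits fall short of the cut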
HIV Env fusion: inhibitors of HIV Env-mediated cell fusion; 360,000 compounds, 1.1% hits; HeLa-JRFL Env/CEM21 cell fusion, luciferase; inhibition, % at 12.3 µM; AID 651610;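 active = mean replicate inhibition score of at least 50 and every replicate individually at or above 50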;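 also: 0% = plate neutral controls and 100% = maraviroc near 300 nM; one replicate is shown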
Yeast UUG start: yeast start codon fidelity modulation | S. cerevisiae UUG-firefly luciferase reporter, luminescence/redox ratio | activity score, % at 18.7 µM | 350,000 compounds, 0.13% hits | AID 602363;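 active = replicate mean at a twofold rise or more, about +100% in these data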;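 also: firefly luciferase made from a UUG start codon reports start codon fidelity; reporter light over untreated wells divided by growth signal over untreated wells; some hits fall short of that in this replicate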
MT1-MMP act inh: inhibitors of human MT1-MMP activation | P50281 | HT1080 RFP-PRO-GFP cells, GFP/RFP ratio fluorescence, overnight; percent of plate control window, DMSO zero | GFP/RFP ratio change, % at 20 µM | 360,000 compounds, 0.061% hits | AID 651647;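 active = GFP/RFP ratio change of at least 30% with cell ATP level not reduced by more than half and red fluorescence within 50% of control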; also: strong numbers were not always called active
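Test system: HT1080 RFP-PRO-GFP cells; Benchmarks: DMSO and RFP-L50D-GFP cell wells; Timing: cells overnight before dosing, compound overnight, 37 °C, 5% CO2; Compound: one 20 µM compound dose with 1% DMSO; Read-out: GFP/RFP fluorescence ratio.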
Rce1 inh: inhibitors of yeast Ras-converting enzyme; Q03530; 290,000 compounds, 0.27% hits; yeast membranes, quenched prenylated peptide cleavage fluorescence; calls only;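 active = fall in fluorescence gain of 50% or more versus controls, with final raw signal at or below 3038400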;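 also: plate controls were neutral control wells for no effect and wells lacking membranes for full effect; tested at 10 µM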
Target sequence (Q03530 whole entry, looked up): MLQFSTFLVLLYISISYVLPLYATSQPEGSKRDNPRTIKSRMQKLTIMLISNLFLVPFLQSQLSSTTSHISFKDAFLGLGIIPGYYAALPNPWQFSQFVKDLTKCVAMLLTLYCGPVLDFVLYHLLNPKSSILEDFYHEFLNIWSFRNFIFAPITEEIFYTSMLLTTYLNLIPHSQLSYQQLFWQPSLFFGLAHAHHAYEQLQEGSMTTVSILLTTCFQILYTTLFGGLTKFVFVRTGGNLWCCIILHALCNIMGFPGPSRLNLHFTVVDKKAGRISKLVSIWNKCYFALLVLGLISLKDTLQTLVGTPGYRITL
CSC inhib: blocks cancer stem cells; inhibition, % at 7.5 µM; 300,000 compounds, 1.1% hits; cancer stem cell-like cells viability, luminescence; AID 2717;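 active = mean at 75% or more and at least half the replicates too; tested in HMLE shEcad cells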;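 also: 0% = median of negative and 100% = median of positive control wells; the first replicate is given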
eIF4H FP inh retest: second read-out of eIF4H FP inh, no call of its own (marks repeat the call); inhibition, %; compound at 20 µM; confirmation average;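 mean of two retest wells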
PABP FP inh retest: further read-out of PABP FP inh, marked with its call; inhibition, %; compound at 20 µM; confirmation repeats;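 mean of two retest wells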
MT1-MMP act inh RFP: also measured in MT1-MMP act inh; calls as there; RFP signal change, %; measured here: RFP expression control read;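 0 = vehicle wells; hits needed this value within 50% of zero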
Numbers without * were called inactive; i = inactive; x = not tested or not shown; & = joins results of further samples.

SMILES	PABP FP inh	eIF4H FP inh	HIV Env fusion	Yeast UUG start	MT1-MMP act inh	MT1-MMP act inh RFP	Rce1 inh	CSC inhib	others
O=C(Nc1cccc(C(=O)N2CCN(c3ccccc3)CC2)c1)c1ccco1	7.4	14.0	0.9	-13.8	0.0	1.4	i	1.8
Cc1cc(C(=O)Cn2nc(C(=O)O)c3ccccc3c2=O)c(C)n1-c1ccc(OC(F)F)cc1	3.5	-4.6	13.2	x	3.3	-3.9	i	-2.8
CCCc1cc(=O)n2[nH]c(NCc3ccc(Cl)cc3Cl)nc2n1	-2.1	-3.2	8.6	-14.7	4.9	6.3	i	-5.4
Cc1ccccc1OCC(=O)Nc1ccc(C(N)=O)cc1	4.4	-1.1	x	x	5.0	8.8	i	-7.6
CCCC1CCC(C(=O)Nn2cnc3ccccc3c2=O)CC1 (stereo not drawn)	4.3	4.9	x	10.9	15.2	0.5	i	-2.2
CC(=O)Nc1cc(-c2ccc(Cl)cc2)[nH]n1	2.3	-4.4	-28.3	-12.3	-4.7	-1.5	i	-17.4
Cc1cc2nc3n(c2cc1C)CC1CC(C(=O)NCC2CC2)N(C)C31 (stereo not drawn)	-0.8	2.9	38.6	-17.9	-1.0	3.3	i	-0.4
CCNC(=O)C1CCCN(C(=O)c2ccc(OC)cc2)CC1 (stereo not drawn)	x	x	-1.0	-18.4	0.9	3.3	x	x
CCC1(c2ccccc2)NC(=O)N(CC(=O)Nc2ccccc2C(=O)N2CCCCC2)C1=O (stereo not drawn)	x	x	-30.0	-2.3	0.5	1.1	i	x
O=S(=O)(NCCN1CCOCC1)c1cc(Cl)c(Cl)cc1Cl	-6.4	9.4	-13.7	-6.2	1.3	0.7	i	-11.7
COc1ccccc1-c1ccc(SCc2ccccc2)nn1	2.2	5.5	-27.2	x	3.0	1.0	i	-0.5
CC(NC(=O)C(=O)NCc1cccs1)c1ccccc1 (stereo not drawn)	2.8	-6.7	-16.8	-5.8	0.2	2.8	i	4.1
Clc1ccc(-c2csc(N3CCSCC3)n2)cc1	6.5	-4.0	-41.2	-5.3	-3.9	-2.9	i	-4.4
Cc1cccc(N2CCN(C(=O)CCN3C(=O)C4C5C=CC(C5)C4C3=O)CC2C)c1 (stereo not drawn)	-3.9	-3.7	7.3	x	1.4	5.2	i	-10.0
O=C(CSc1n[nH]c(=O)n1C1CC1)Nc1ccc(Cl)cc1Cl	x	x	x	-15.1	3.7	-2.7	x	-8.1
CCC(C)NC(=O)COc1ccccc1[N+](=O)[O-] (stereo not drawn)	-1.7	0.6	-3.7	x	2.0	-1.5	i	x
CN(C)c1nc(N(C)C)n(Cc2c(Cl)cccc2Cl)n1	0.1	20.0	-3.6	-1.5	5.1	-0.1	i	-7.1
Cc1cccc2nc(=S)n(C(=O)c3ccco3)n12	-4.5	-1.5	-264.6	-7.0	4.0	2.6	i	-16.0
COc1cccc(COC(=O)C2CCN(S(=O)(=O)c3ccc(F)cc3)CC2)c1OC	x	x	-1.7	-13.7	3.1	-3.3	x	x
Cc1c(NS(=O)(=O)c2ccccc2)c(=O)n(-c2ccccc2)n1C	-1.1	4.8	-22.6	-17.6	6.5	6.9	x	-1.8
O=C(CSc1cccc[n+]1[O-])NN(c1ccccc1)c1ccccc1	10.0	1.2	-2.4	0.4	-1.7	-0.9	i	-20.4
CSc1ccc(NC(=O)CC(C)=O)cc1	5.3	1.3	-1.6	-21.7	-6.3	-5.8	i	-4.0
CCNCc1cc(OCC)c(OCC(=O)NCCc2ccccc2)cc1Cl	-4.1	0.2	x	-13.1	-2.0	-2.2	x	-11.3
NC(=O)C1CCN(C(=O)CC2(CC(=O)O)CCCCC2)CC1	10.6	-5.4	3.5	x	0.9	6.0	i	-7.3
COc1ccc(CC(=O)Nc2ccccc2NC(=O)c2ccco2)cc1OC	6.5	3.8	5.0	x	0.9	4.7	x	-2.2
COc1ccc(S(=O)(=O)Nc2ccc3c(c2)C(=O)N([C@H](C)CO)C[C@H](C)[C@@H](CN(C)C(=O)Nc2c(C)noc2C)OCCCC[C@H](C)O3)cc1	x	x	-8.6	-21.3&28.2	4.4	2.1	x	x
COC(=O)C1CCN(C(=O)COc2ccc(Cl)cc2)CC1	-3.5	2.9	-265.3	-13.5	2.1	2.9	i	-12.1
Cc1ccc(NC(=O)COC(=O)C2CCC2)cc1S(=O)(=O)N1CCCCC1	x	x	0.8	x	1.9	2.3	i	-11.5
COC(=O)[C@H](Cc1ccccc1)NC(=O)c1cc(COc2c(F)cccc2F)on1	6.8	-6.9	-47.8	-15.8	1.0	-1.2	i	-4.4
Cc1ccccc1NC(=O)C1CC(=O)N(c2ccccc2F)C1 (stereo not drawn)	-2.0	-9.8	x	-17.7	-0.9	4.2	i	-12.8
Cc1ccc(C)c(CN2C(=O)C(C)Oc3ccc(C)cc32)c1 (stereo not drawn)	-10.2	-5.5	17.0	-19.2	-3.4	-3.5	i	1.1
C=CCN1C(=O)CSc2ccc(C(=O)NCc3ccc(F)cc3)cc21	x	x	-12.8	-7.8	-1.5	-3.2	i	-3.5
CCOC(=O)CC(NC(=O)Cn1nnc(-c2ccccc2F)n1)c1ccccc1Cl (stereo not drawn)	-2.8	-2.5	-5.1	x	0.0	-1.5	i	6.4
CC(=O)c1cc2ccc(O)cc2oc1=O	7.2	6.8	10.6	-6.3	0.7	4.0	i	14.1
CCN1CCN(c2cc(C)c3cc(NC(=O)c4cnccn4)ccc3n2)CC1	2.3	3.4	5.1	-6.0	0.4	3.5	i	-14.1
O=C(COC(=O)c1cc([N+](=O)[O-])ccc1N1CCOCC1)Nc1c(Cl)cccc1C(F)(F)F	-0.7	-2.4	-1.4	-4.1	2.5	3.2	i	-2.1
COc1ccc(C(=O)NCc2ccc(C(=O)O)o2)cc1	-0.7	-3.0	0.4	-26.9	-2.4	4.4	x	10.6
C=CCc1c(C)nc2cc(-c3ccc(C)cc3)[nH]n2c1=O	-6.0	-5.4	-18.8	-28.6	-4.0	0.1	i	1.4
Cc1ccc(-c2cn(CCN)c(-c3ccc(Cl)nc3)n2)cc1	x	x	-21.7	-12.6	1.3	4.6	x	-5.0
CC(=O)Nc1cccc(NC(C)=O)n1	3.0&9.9	1.1&11.7	-48.8	0.6	1.1	7.9	i	2.7
Brc1ccc(CSc2ncnc3nc[nH]c23)cc1	12.2	4.4	-17.5	-11.8	0.5	3.8	i	50.1
N#CC1=C(N)OC2=C(CCc3ccccc32)C1c1ccccc1 (stereo not drawn)	11.5	0.7	-102.4	x	8.4	-1.9	i	3.0
CC(C)(C)c1ccc(C(=O)c2c[nH]c(C(=O)NCc3cccnc3)c2)cc1	-14.1	7.9	31.4	-0.3	10.7	-14.9	i	-1.4
CC(OC(=O)C1CC1C)C(=O)Nc1ncc(Cl)cc1Cl (stereo not drawn)	x	x	x	2.0	0.6	4.1	i	-9.8
Cc1ccc(C(=O)NC(C)c2ccc(-n3ccnc3)cc2)cc1S(=O)(=O)N1CCOCC1 (stereo not drawn)	x	x	-8.2	1.9	0.1	-1.7	i	6.6
N=C1/C(=C/c2ccc(-c3cccc(C(=O)O)c3)o2)C(=O)N=C2SC=C(c3ccccc3)N12	11.2*	51.8*	-6.5	x	-2.3	3.7	i	21.5	eIF4H FP inh retest=99.3*;PABP FP inh retest=80.7*
NC(=O)C1CCCN(C(=O)c2ccc3nc(Cc4cccc(Cl)c4)oc3c2)C1 (stereo not drawn)	-2.8	-4.5	-7.6	-12.1	-0.9	-5.5	i	21.6
Cc1ccc(S(=O)(=O)NCCC2(C(C)C)CCOC(C)(C)C2)cc1 (stereo not drawn)	7.0	5.7	x	6.2	-0.5	-0.1	i	-18.5
COc1ccc(NC(=O)C(=O)NCCC2=CCCCC2)c(OC)c1	4.5	2.9	15.8	-21.5	2.1	1.7	i	-4.7
Cc1ccc(-n2ncc(Cl)c2C(=O)NCc2ccccc2)cc1	-0.8	0.6	0.4	-11.8	-1.6	-4.5	i	24.1
CC(C)(C)c1cc(C(=O)NCc2cc(F)cc3c2OCOC3)n(Cc2ccccc2)n1	-2.3	-1.1	-12.4	x	-5.7	-8.5	i	1.5
COC(=O)C(OC(=O)c1ccccc1)C(C)Br (stereo not drawn)	x	x	-1.6	-12.0	-1.1	4.6	x	2.3
CCOc1ccc(N2C(=O)Cc3ccccc3C2=O)cc1	-6.2	-6.8	-6.8	-11.2	-0.7	2.8	i	-6.1
Cc1cc(NC(=O)c2coc(=O)c(Br)c2)ccc1C(C)C	-10.9	-5.0	-20.7	-10.9	4.1	-2.0	i	17.0
COc1ccc(-c2ccc(C(=O)NCc3ccco3)c3occc23)c(C)c1	x	x	-19.5	-11.8	-2.7	-9.8	x	x
CC(O)CNC12CC3CC(CC(C3)C1)C2 (stereo not drawn)	10.2	-3.3	3.6	x	1.6	2.8	i	-0.8
COC(=O)c1nnn(CC(=O)Nc2cccc(Cl)c2)c1C(=O)OC	-8.3	-7.6	-4.3	-10.6	7.3	10.1	i	13.1
CCOC(=O)N1CCC(n2c(=S)[nH]c3ccccc3c2=O)CC1	-2.8	-4.4	x	x	2.8	0.3	i	-9.8
Cc1ccc(Cn2c(C(=O)NCCCN3CCOCC3)cc3sccc32)cc1	7.0	-6.7	x	-3.6	-3.4	-5.8	i	-7.1
CC(=O)c1ccc(NC(=O)C(C)OC(=O)c2cccc(-n3cnnn3)c2)cc1 (stereo not drawn)	x	x	x	x	2.7	-4.6	i	-11.2

Ordered by formula weight (low to high): 3 of the compounds above
SMILES	PABP FP inh	eIF4H FP inh	HIV Env fusion	Yeast UUG start	MT1-MMP act inh	MT1-MMP act inh RFP	Rce1 inh	CSC inhib	others
CC(OC(=O)C1CC1C)C(=O)Nc1ncc(Cl)cc1Cl (stereo not drawn)	x	x	x	2.0	0.6	4.1	i	-9.8
COc1ccc(-c2ccc(C(=O)NCc3ccco3)c3occc23)c(C)c1	x	x	-19.5	-11.8	-2.7	-9.8	x	x
Cc1ccc(C(=O)NC(C)c2ccc(-n3ccnc3)cc2)cc1S(=O)(=O)N1CCOCC1 (stereo not drawn)	x	x	-8.2	1.9	0.1	-1.7	i	6.6

(cont.)
SMILES	PABP FP inh	eIF4H FP inh	HIV Env fusion	Yeast UUG start	MT1-MMP act inh	MT1-MMP act inh RFP	Rce1 inh	CSC inhib	others
Cc1cccc(-n2c(O)c(C=Nc3cccc(O)c3)c3ccccc3c2=O)n1	7.3	1.5	-12.0	-6.4	-6.1	-6.6	i	1.3
Cc1cc(C)cc(OCC(=O)Nc2nc(-c3cccnc3)cs2)c1	0.7	-2.9	-84.0	-16.9	0.5	1.8	i	-11.4
O=C(NCc1cccs1)c1ccc(Br)o1	7.4	-1.0	8.1	10.2	2.1	1.9	i	-8.1
O=C(NCCCN1CCOCC1)c1ccc2c(=O)n(Cc3ccc(Cl)cc3)c(=S)[nH]c2c1	-14.1	-7.0	6.8	-16.4	4.9	-2.4	i	0.1
CN(C)C(=O)c1cccc(-c2cc(NC=O)c3ncc(-c4ccc(F)cc4)n3c2)c1	x	x	14.3	-1.8	-9.3	-4.1	x	x
COc1ccccc1C1c2[nH]c3ccccc3c2C[C@H]2C(=O)N(C3CCN(Cc4ccccc4)CC3)CC(=O)N12 (stereo partly drawn)	-5.7	-2.3	17.0	5.3	-4.3	-9.5	i	-2.7
CCOC(=O)C(C)Oc1cccc2c(=O)n(CC(=O)NCc3ccc(F)cc3)ccc12 (stereo not drawn)	-10.5	0.5	-269.0	-10.3	5.5	-7.2	i	44.7
c1ccc(C[C@H]2CN=C(Nc3ccccc3)N2CCC2CCCC2)cc1	x	x	-6.2	-19.9	0.5	-3.2	x	17.5
COc1ccc(NC(=O)CN(C)C(=O)CC2CCCCC2)cc1	x	x	x	-2.9	x	x	i	-10.2
Cc1ccc(-c2nnn(CCOc3cccc(Br)c3)n2)cc1	-2.4	-4.8	2.3	x	1.6	2.0	i	4.2

This is a subset (hit frequency here may not be typical).
